Bioassay records deposited in PubChem BioAssay by National Center for Advancing Translational Sciences (NCATS).
D2 agonist: agonists of human D2 dopamine receptor (beta-arrestin) | DiscoveRx PathHunter D2 beta-arrestin, luminescence, 90 min; 100% = 57 uM dopamine signal | P14416 | actives 0.084% (n = 360,000) | activation, % (no concentration beside the values) | AID 624465; in the data active = activation above about 40%; inconclusive = about 15% to 40%; inactive = below about 15%; also: compound concentration not given in the record; the text of the record calls up to 30% inactive
Target sequence (P14416 whole entry, looked up): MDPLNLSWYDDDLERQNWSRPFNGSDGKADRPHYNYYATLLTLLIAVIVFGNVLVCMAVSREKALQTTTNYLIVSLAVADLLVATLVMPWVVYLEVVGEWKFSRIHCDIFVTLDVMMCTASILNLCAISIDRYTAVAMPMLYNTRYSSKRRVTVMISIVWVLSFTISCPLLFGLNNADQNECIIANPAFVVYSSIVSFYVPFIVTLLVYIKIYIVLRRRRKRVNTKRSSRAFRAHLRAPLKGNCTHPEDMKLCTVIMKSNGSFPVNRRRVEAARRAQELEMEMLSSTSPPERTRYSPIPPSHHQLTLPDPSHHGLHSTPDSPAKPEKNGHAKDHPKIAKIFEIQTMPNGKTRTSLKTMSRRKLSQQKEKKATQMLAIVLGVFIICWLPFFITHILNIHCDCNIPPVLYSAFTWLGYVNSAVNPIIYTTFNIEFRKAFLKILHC
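DiscoveRx PathHunter D2 beta-arrestin cells (2,100/well) attached overnight, then compound-stimulated 90 min at 37 C in HBSS/10 mM HEPES/0.1% Tween-20 buffer; beta-galactosidase complementation read by luminescence after 1 h at ambient temperature. Dopamine 57 uM final (EC100) as control.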
TRPML1 ag: human mucolipin-1 channel agonism; Q9GZU1; TRPML1-expressing cells, Ca2+ dye fluorescence, FDSS; host cell line not named in the record; reference of the full effect not given here; activation, % (no concentration beside the values); actives 0.12% (n = 410,000); AID 624414; in the data active = activation above about 50%; inconclusive = about 30% to 50%; inactive = below about 30%; also: 0% is about no effect; the text of the record puts the active cut at 80%
Target sequence (Q9GZU1 whole entry, looked up): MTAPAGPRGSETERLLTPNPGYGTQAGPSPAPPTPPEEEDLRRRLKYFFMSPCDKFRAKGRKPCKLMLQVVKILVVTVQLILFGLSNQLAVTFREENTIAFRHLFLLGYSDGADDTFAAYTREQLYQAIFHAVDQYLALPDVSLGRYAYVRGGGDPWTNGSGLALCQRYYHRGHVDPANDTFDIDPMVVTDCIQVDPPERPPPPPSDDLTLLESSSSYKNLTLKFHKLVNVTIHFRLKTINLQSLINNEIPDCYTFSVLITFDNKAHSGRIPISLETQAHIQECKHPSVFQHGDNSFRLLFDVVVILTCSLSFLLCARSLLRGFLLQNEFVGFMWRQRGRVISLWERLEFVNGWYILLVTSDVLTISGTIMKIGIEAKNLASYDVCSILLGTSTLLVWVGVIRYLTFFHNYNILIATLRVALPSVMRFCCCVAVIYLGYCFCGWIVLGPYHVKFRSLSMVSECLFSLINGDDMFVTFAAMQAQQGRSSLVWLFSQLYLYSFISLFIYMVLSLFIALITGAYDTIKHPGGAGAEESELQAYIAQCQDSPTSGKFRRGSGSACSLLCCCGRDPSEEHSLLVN
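Calcium fluorescence on an FDSS kinetic reader gave the read-out. Tet-induced TRPML1-DL cells were plated overnight, dye-loaded (Ca8 with quencher, 45-90 min, room temperature, dark), then read 110 s after compound addition, and again 110 s after 4uM final 54-4 (EC80).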
CtBP-E1A inh: blocks the CtBP interaction with E1A; activity change, % (no concentration beside the values); actives 0.49% (n = 340,000); AlphaScreen GST-E1A/His-CtBP binding, 1536-well; stronger effect = lower value; control for the full effect not named in the record; in the data active means activity change below about -65%; inconclusive means about -30% to -65%; inactive means above about -30%; also: % is scaled to controls: 0 for no effect and ±100 for the full control effect; compound concentration not given in the record
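AlphaScreen with 125 nM GST-E1A and 125 nM His-CtBP (5X stocks) in Tris pH 8.0, 300 mM NaCl, BSA, Tween 20, TCEP. Compounds preincubated 2 h at 37 deg C, then glutathione donor/nickel acceptor beads added for 1 h at 37 deg C in dark.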
PINK1 modulator: PINK1 expression modulation; PINK1 immunofluorescence, high-content cytometry, 24 h; Potency, µM (titrated, usually from 76.6 µM), without a hit: top-dose activation (PINK1 increase), actives largely listed as activators; actives 0.2% (n = 410,000); active = well fitted activation curve with a large enough effect; inconclusive = small, poorly fitted or top-dose-only effect; inactive = flat fitted curve, though single readings scatter; cell line not stated here;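 also: potency is read from the fitted curve at half-maximal effect; % of control where 0% means no effect; nearly all actives have a fitted effect of over 65% in size; a mitochondrial uncoupler was the plate control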
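Stable cell line, 250 cells/well, 12 h attachment; compounds pinned at 5 concentrations, 24 h; CCCP control. Fixed with nuclear dye, primary antibodies 12 h at 10 degrees C, secondary plus cell stain; laser-scanning cytometer read.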
Six1-Eya2 inh: blocks human Six1 binding to Eya2 | activity change, % (concentration not given with the values) | AlphaScreen GST-Six1/His-Eya2 binding, biochemical; stronger effect = lower value; control for the full effect not named in the record | actives 0.56% (n = 360,000) | AID 651725; in the data active = activity change below about -65%; inconclusive = about -30% to -65%; inactive = above about -30%; also: % is scaled to controls: 0 for no effect and ±100 for the full control effect
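AlphaScreen with GST-Six1 and His-Eya2 (5X mix: 250 nM and 500 nM), glutathione donor and nickel acceptor beads; buffer 50 mM Tris pH 8.0, 300 mM NaCl, 1 mM TCEP; 1 h at 37 C in the dark.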
D2 potentiator: positive allosteric modulators of human D2 dopamine receptor; DiscoveRx D2 beta-arrestin cells, luminescence, 90 min; 100% = 57 uM dopamine signal; AID 624464; potentiation, % (concentration not given with the values); actives 0.23% (n = 360,000); active = potentiation of 50% or more; inconclusive = 30% to 50%; inactive = 30% or less;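 also: compound concentration not given in the record; tested on top of an EC20 dose of dopamine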
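PathHunter D2 cells, attached overnight at 37 deg C, received compound in DMSO plus dopamine at EC20 (50 nM final) for 90 min at 37 deg C. Beta-arrestin recruitment was read as luminescence after 1 h with detection reagent at ambient temperature.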
* marks the source's active call; other numbers are inactive results; [ ] = another dose, or the depositor's remark.

What do the screens show for `CC(CC(=O)O)CC1=NS(=O)(=O)c2ccccc2N1` (stereo not drawn)?
D2 agonist: -3.0; TRPML1 ag: -0.8; CtBP-E1A inh: 8; PINK1 modulator: 3.3%; Six1-Eya2 inh: 0; D2 potentiator: -11

What do the screens show for `Cc1cc(C)c2c(c1)-c1cc(C)nn1C(c1ccc3c(c1)OCO3)N2` (stereo not drawn)?
D2 agonist: -2.2; TRPML1 ag: 2.4; CtBP-E1A inh: 1; PINK1 modulator: 9.0%; Six1-Eya2 inh: -3; D2 potentiator: 2

Results for CCOC(=O)C1CCN(C(=O)Cn2nc(C)c3c(C)n(-c4ccccc4)nc3c2=O)CC1 ?
D2 agonist: -5.8; TRPML1 ag: -1.2; CtBP-E1A inh: 5; PINK1 modulator: -0.9%; Six1-Eya2 inh: 1; D2 potentiator: 0

How did O=C(CCn1c(=S)[nH]c2ccccc2c1=O)Nc1cccc(Cl)c1 do in these assays?
D2 agonist: 8.2; TRPML1 ag: -0.7; PINK1 modulator: 6.2%; Six1-Eya2 inh: 4; D2 potentiator: 3

How did COc1ccc(C2/C(=C(\O)c3ccc4c(c3)OCCO4)C(=O)C(=O)N2Cc2cccnc2)cc1OC (stereo not drawn) do in these assays?
D2 agonist: -0.5; TRPML1 ag: -0.4; CtBP-E1A inh: 2; PINK1 modulator: 0.4%; Six1-Eya2 inh: 0; D2 potentiator: -3

How did CCN(CC(=O)NCc1cccs1)c1ccc(S(=O)(=O)N2CCOCC2)cn1 do in these assays?
D2 agonist: -1.0; TRPML1 ag: -0.3; CtBP-E1A inh: 6; PINK1 modulator: 0.2%; Six1-Eya2 inh: 6; D2 potentiator: -11

Results for O=C(O)C1(Cc2nc3ccccc3[nH]2)CCCC1 ?
D2 agonist: -4.2; TRPML1 ag: -0.5; CtBP-E1A inh: -12; PINK1 modulator: -0.4%; Six1-Eya2 inh: 3; D2 potentiator: -4

What do the screens show for `O=C(CSc1nncs1)NC(=O)NCc1ccco1`?
D2 agonist: 7.1; TRPML1 ag: 0.8; CtBP-E1A inh: 2; PINK1 modulator: -1.3%; Six1-Eya2 inh: 1; D2 potentiator: 7

Results for O=C(O)CCc1ccc(-c2ccccc2)n1CC1CCCO1 (stereo not drawn) ?
D2 agonist: -0.8; TRPML1 ag: 0.6; CtBP-E1A inh: 3; PINK1 modulator: 2.5%; Six1-Eya2 inh: 2; D2 potentiator: 12

Results for C=CCN(C(=O)c1csnn1)C(C(=O)NCc1ccccc1)c1ccccc1F (stereo not drawn) ?
D2 agonist: -2.0; TRPML1 ag: 0.5; CtBP-E1A inh: 6; PINK1 modulator: 3.1%; Six1-Eya2 inh: -5; D2 potentiator: -3

How did CCOC(=O)C1=C(CN2CCN(C(=O)c3ccco3)CC2)NC(=O)NC1c1ccc(OC(C)C)cc1 (stereo not drawn) do in these assays?
D2 agonist: -4.2; TRPML1 ag: -0.5; CtBP-E1A inh: -3; PINK1 modulator: 0.7%; Six1-Eya2 inh: -4; D2 potentiator: -9

How did Fc1ccc(NC(=S)N/N=C/c2ccc(F)c(F)c2)cc1 do in these assays?
D2 agonist: -2.6; TRPML1 ag: 4.0; CtBP-E1A inh: 5; PINK1 modulator: 3.9%; Six1-Eya2 inh: -3; D2 potentiator: -14

Results for COc1ccccc1CNC(=O)c1cccc(NC(=O)c2ccccc2)c1 ?
D2 agonist: 1.6; TRPML1 ag: 1.3; PINK1 modulator: -1.2%; Six1-Eya2 inh: -7; D2 potentiator: -9

What do the screens show for `CCn1c(=S)sc2c(=O)n(CC(=O)Nc3cccc(Cl)c3)c(C)nc21`?
D2 agonist: 0.4; TRPML1 ag: -0.2; CtBP-E1A inh: -7; PINK1 modulator: 15%; Six1-Eya2 inh: -8; D2 potentiator: -3

Results for Cc1ccc(C)c(NC(=O)Cn2nc(C(F)(F)F)cc2C2CC2)c1 ?
D2 agonist: -1.4; TRPML1 ag: 3.6; CtBP-E1A inh: 2; PINK1 modulator: inconclusive; Six1-Eya2 inh: 0; D2 potentiator: -4

How did COc1cccc(CNC(=O)CCS(=O)(=O)c2ccc3c(c2)NC(=O)CS3)c1 do in these assays?
D2 agonist: 2.0; TRPML1 ag: 0.8; CtBP-E1A inh: -3; PINK1 modulator: -0.3%; Six1-Eya2 inh: -2; D2 potentiator: 2

What do the screens show for `Cc1ccc(CNC(=O)Cn2nnc3ccccc3c2=O)cc1`?
D2 agonist: 0.9; TRPML1 ag: -1.5; CtBP-E1A inh: -3; PINK1 modulator: 4.2%; Six1-Eya2 inh: 1; D2 potentiator: -14

How did O=C(CN(C(=O)Cn1nnc(-c2ccccc2F)n1)c1cnc2ccccc2c1)NCC1CCCO1 (stereo not drawn) do in these assays?
D2 agonist: 0.6; TRPML1 ag: -0.4; CtBP-E1A inh: 10; PINK1 modulator: 1.4%; Six1-Eya2 inh: 7; D2 potentiator: -3

How did Cc1ccc(-n2c(C)nc3c(cnn3-c3ccc(C)c(C)c3)c2=O)cc1C do in these assays?
D2 agonist: 5.4; TRPML1 ag: 1.8; CtBP-E1A inh: 0; PINK1 modulator: 0.1%; Six1-Eya2 inh: 8; D2 potentiator: -5

How did COc1ccc(NC(=O)CON=CC(=O)Nc2ccc(C)cc2)c(OC)c1 do in these assays?
D2 agonist: -0.2; TRPML1 ag: -1.6; PINK1 modulator: 6.3%; Six1-Eya2 inh: -6; D2 potentiator: -13

By substructure: those above containing a COOH group.
What do the screens show for `CC(CC(=O)O)CC1=NS(=O)(=O)c2ccccc2N1` (stereo not drawn)?
D2 agonist: -3.0; TRPML1 ag: -0.8; CtBP-E1A inh: 8; PINK1 modulator: 3.3%; Six1-Eya2 inh: 0; D2 potentiator: -11

Results for O=C(O)C1(Cc2nc3ccccc3[nH]2)CCCC1 ?
D2 agonist: -4.2; TRPML1 ag: -0.5; CtBP-E1A inh: -12; PINK1 modulator: -0.4%; Six1-Eya2 inh: 3; D2 potentiator: -4

Results for O=C(O)CCc1ccc(-c2ccccc2)n1CC1CCCO1 (stereo not drawn) ?
D2 agonist: -0.8; TRPML1 ag: 0.6; CtBP-E1A inh: 3; PINK1 modulator: 2.5%; Six1-Eya2 inh: 2; D2 potentiator: 12

Other structures follow:
What do the screens show for `Cn1ccc2c(-c3ccc(C(N)=O)cc3)cc3c(c21)C1CCC3C1` (stereo not drawn)?
D2 agonist: -3.2; TRPML1 ag: 0.4; CtBP-E1A inh: 0; PINK1 modulator: 0.7%; Six1-Eya2 inh: -2; D2 potentiator: -2

How did N#Cc1ccsc1NC(=O)CSc1ncnc2ccccc12 do in these assays?
D2 agonist: -4.3; TRPML1 ag: 1.7; CtBP-E1A inh: -16; PINK1 modulator: 0.2%; Six1-Eya2 inh: -12; D2 potentiator: -15

How did O=C(c1ccc(Cl)cc1)N1CCc2ccccc21 do in these assays?
D2 agonist: -1.8; PINK1 modulator: 1.7%; Six1-Eya2 inh: 4; D2 potentiator: -1

Results for O=C(Nc1nc2cc3c(cc2s1)OCCO3)c1cccs1 ?
D2 agonist: -7.7; CtBP-E1A inh: 0; PINK1 modulator: -0.6%; Six1-Eya2 inh: -2; D2 potentiator: -5

Results for Cc1ccc(Sc2cc(C(=O)NCCCN(C)C)c3ccccc3n2)cc1 ?
D2 agonist: -2.9; TRPML1 ag: 0.5; CtBP-E1A inh: -2; PINK1 modulator: 5.3%; Six1-Eya2 inh: 0; D2 potentiator: -23

Results for CCC(CC)C(=O)N(C)c1c(C)nc2c(OCc3ccccc3C)cccn12 ?
D2 agonist: -1.5; TRPML1 ag: 0.3; CtBP-E1A inh: -4; PINK1 modulator: -0.6%; Six1-Eya2 inh: -6; D2 potentiator: -7

Results for CC(C)Cc1ccc(CN2CCCC(NC(=O)CCN3CCCO3)C2)cc1 (stereo not drawn) ?
D2 agonist: -3.8; TRPML1 ag: 0.3; CtBP-E1A inh: 0; PINK1 modulator: -0.7%; Six1-Eya2 inh: -4; D2 potentiator: -27

What do the screens show for `CCOC(=O)C(=O)Nc1ccc(Oc2ccccc2)cc1`?
D2 agonist: 0.8; TRPML1 ag: 1.4; CtBP-E1A inh: 13; PINK1 modulator: 1.1%; Six1-Eya2 inh: -1; D2 potentiator: -1

What do the screens show for `Cc1cc([N+](=O)[O-])nn1CC(=O)Nc1sc2c(c1C(N)=O)CCCC2`?
D2 agonist: -3.7; TRPML1 ag: -0.7; CtBP-E1A inh: 1; PINK1 modulator: 1.6%; Six1-Eya2 inh: -13; D2 potentiator: -2

Results for Cc1ccc2[nH]c(=O)c(CN(CCc3ccccc3)C(c3nnnn3Cc3ccco3)C(C)C)cc2c1 (stereo not drawn) ?
D2 agonist: 1.4; TRPML1 ag: 2.0; CtBP-E1A inh: -1; PINK1 modulator: 2.8%; Six1-Eya2 inh: 1; D2 potentiator: -3

Results for CCSc1nnc(Cn2c(=O)sc3ccccc32)n1C ?
D2 agonist: -6.1; TRPML1 ag: -0.1; CtBP-E1A inh: 4; PINK1 modulator: 2.0%; Six1-Eya2 inh: 0; D2 potentiator: 3

How did O=C(Cn1cc(C(F)(F)F)cc(Cl)c1=O)NCc1ccc(Cl)cc1 do in these assays?
D2 agonist: -3.1; TRPML1 ag: -0.4; CtBP-E1A inh: 2; PINK1 modulator: 3.9%; Six1-Eya2 inh: 2; D2 potentiator: -6

Results for Cc1nc2ccc(-c3nc4ccccc4o3)cc2[nH]1 ?
D2 agonist: -1.0; TRPML1 ag: 0.8; CtBP-E1A inh: inconclusive; PINK1 modulator: -1.1%; Six1-Eya2 inh: -27; D2 potentiator: 0

What do the screens show for `CC(=O)Nc1ccc(NC(=O)c2cc(-n3cnnc3)ccc2Cl)cc1`?
D2 agonist: -0.2; TRPML1 ag: 0.9; CtBP-E1A inh: 1; PINK1 modulator: -0.8%; Six1-Eya2 inh: -4; D2 potentiator: 1

Results for CCn1cc(C(=O)N2CCN(C(=O)c3ccco3)CC2)c2cc(OC)c(OC)cc2c1=O ?
D2 agonist: -3.6; TRPML1 ag: 1.8; CtBP-E1A inh: 6; PINK1 modulator: 0.8%; Six1-Eya2 inh: 0; D2 potentiator: -18

Results for Cc1ccn(C(=O)c2cc3cc(Cl)ccc3oc2=O)n1 ?
D2 agonist: 2.5; TRPML1 ag: -0.2; CtBP-E1A inh: 2; PINK1 modulator: 0.6%[38.3 µM]; Six1-Eya2 inh: -1; D2 potentiator: 12

What do the screens show for `CC(C)CN1CCN(Cc2ccc3ncccc3c2)CC1CCO` (stereo not drawn)?
D2 agonist: -0.9; TRPML1 ag: -0.7; CtBP-E1A inh: 7; PINK1 modulator: -0.5%; Six1-Eya2 inh: -7; D2 potentiator: -10

Rows were taken by chance; 1.3% or so of the library scored in one or more.
